# CtBP-E1A inh = inhibitors of CtBP/E1A interaction | AlphaScreen GST-E1A/His-CtBP binding, 1536-well; active compounds read low; control for the full effect not named in the record | activity change, % (concentration not given with the values) | actives 0.49% (n = 340,000); in the data active means activity change below about -65%; inconclusive means about -30% to -65%; inactive means above about -30%; also: % is scaled to controls: 0 for no effect and ±100 for the full control effect
#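 Protein mix (5X: 125 nM each GST-E1A, His-CtBP) was incubated with pinned compound 2 h at 37 deg C in dark, in 50 mM Tris pH 8.0 buffer with 300 mM NaCl. Glutathione donor and nickel acceptor beads followed; AlphaScreen signal read after 1 h.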
# Six1-Eya2 blk = Six1/Eya2 interaction inhibition; AlphaScreen GST-Six1/His-Eya2 binding, biochemical; active compounds read low; control for the full effect not named in the record; activity change, % (no concentration beside the values); actives 0.56% (n = 360,000); AID 651725; in the data active = activity change below about -65%; inconclusive = about -30% to -65%; inactive = above about -30%; also: % is scaled to controls: 0 for no effect and ±100 for the full control effect
#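 Compounds are tested against tagged Six1 and Eya2 proteins bridged by glutathione donor and nickel acceptor beads; after a one-hour incubation at 37 °C without light, AlphaScreen emission is recorded.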
# TRPML1 inh = blocks the human TRPML1 channel. TRPML1-inducible cells, Ca2+ dye fluorescence, FDSS; active compounds read low; inhibition of EC80 agonist-evoked calcium signal. actives 0.02% (n = 390,000). activity change, negative = inhibition, % (no concentration beside the values); in the data active means activity change below about -50%; inconclusive means about -30% to -50%; inactive means above about -30%;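 also: stimulus is agonist 54-4 at its EC80 concentration; % is scaled to controls: 0 for no effect and ±100 for the full control effect; compound concentration not given in the record; the text of the record puts the active cut at -80%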
# Target sequence (Q9GZU1 whole entry, looked up): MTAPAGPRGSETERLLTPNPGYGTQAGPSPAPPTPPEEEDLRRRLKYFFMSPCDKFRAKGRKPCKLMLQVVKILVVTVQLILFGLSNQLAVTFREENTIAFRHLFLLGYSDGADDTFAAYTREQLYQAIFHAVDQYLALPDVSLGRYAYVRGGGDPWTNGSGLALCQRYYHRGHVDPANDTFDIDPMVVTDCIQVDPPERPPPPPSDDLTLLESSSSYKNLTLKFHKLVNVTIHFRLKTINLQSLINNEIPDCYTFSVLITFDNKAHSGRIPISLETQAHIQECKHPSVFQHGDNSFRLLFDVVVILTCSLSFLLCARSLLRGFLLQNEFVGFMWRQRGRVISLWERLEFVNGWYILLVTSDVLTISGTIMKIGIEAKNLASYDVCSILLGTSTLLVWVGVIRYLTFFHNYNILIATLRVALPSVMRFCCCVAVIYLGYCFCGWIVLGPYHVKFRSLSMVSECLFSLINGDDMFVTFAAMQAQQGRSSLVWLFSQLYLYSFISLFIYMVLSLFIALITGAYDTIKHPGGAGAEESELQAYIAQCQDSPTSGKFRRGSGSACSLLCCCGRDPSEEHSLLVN
#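 Tet-induced TRPML1-DL cells loaded with Ca8 no-wash calcium dye were read kinetically on FDSS. Compound addition was followed by EC80 agonist 54-4 (4 uM final); inhibition was read over 110 s.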
# PINK1 modulator = changes PINK1 expression; PINK1 immunofluorescence, high-content cytometry, 24 h; Potency, µM (doses to about 76.6 µM), for inactives: at the top dose activation (PINK1 increase), most hits filed as activators; actives 0.2% (n = 410,000); AID 624263; active = well fitted activation curve with a large enough effect; inconclusive = small, poorly fitted or top-dose-only effect; inactive = flat fitted curve, though single readings scatter; cell line not stated here;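 also: potency is read from the fitted curve at half-maximal effect; % of control where 0% means no effect; nearly all actives have a fitted effect of over 65% in size; a mitochondrial uncoupler was the plate control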
#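 Fluorescence from anti-PINK1 antibody, together with nuclear and cell stains, was scanned on a laser-scanning cytometer. Before staining, stable-line cells were incubated 24 hours with compounds at 5 concentrations; primary antibody 12 h at 10 degrees C.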
# D2 agonist = agonists of human D2 dopamine receptor (beta-arrestin). actives 0.084% (n = 360,000). activation, % (test concentration not listed). AID 624465. DiscoveRx PathHunter D2 beta-arrestin, luminescence, 90 min; 100% = 57 uM dopamine signal. P14416; in the data active = activation above about 40%; inconclusive = about 15% to 40%; inactive = below about 15%; also: compound concentration not given in the record; the text of the record calls up to 30% inactive
# Target sequence (P14416 whole entry, looked up): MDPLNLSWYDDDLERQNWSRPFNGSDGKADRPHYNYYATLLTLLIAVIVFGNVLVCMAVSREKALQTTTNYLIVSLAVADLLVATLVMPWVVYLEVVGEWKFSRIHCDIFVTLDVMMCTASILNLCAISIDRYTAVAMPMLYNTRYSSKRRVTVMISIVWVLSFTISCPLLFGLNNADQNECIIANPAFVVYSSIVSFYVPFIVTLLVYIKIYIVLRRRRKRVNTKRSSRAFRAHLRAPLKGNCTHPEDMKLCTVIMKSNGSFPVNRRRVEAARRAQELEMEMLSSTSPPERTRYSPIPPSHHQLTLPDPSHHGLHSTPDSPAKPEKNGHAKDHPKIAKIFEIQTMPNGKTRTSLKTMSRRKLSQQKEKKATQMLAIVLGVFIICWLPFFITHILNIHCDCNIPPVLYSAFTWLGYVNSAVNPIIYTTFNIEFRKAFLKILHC
#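 Agonist mode: compounds alone added to overnight-plated D2 PathHunter cells for 90 min at 37 C, with 57 uM final dopamine (EC100) defining full response. Beta-arrestin recruitment detected by chemiluminescent reagent, read after 1 h at ambient temperature.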
# TRPML1 ag = activates the human TRPML1 channel; TRPML1-expressing cells, Ca2+ dye fluorescence, FDSS; host cell line not named in the record; reference of the full effect not given here; activation, % (concentration not given with the values); actives 0.12% (n = 410,000); in the data active = activation above about 50%; inconclusive = about 30% to 50%; inactive = below about 30%; also: 0% is about no effect; the text of the record puts the active cut at 80%
#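 Kinetic FDSS Ca2+ read in Tet-induced TRPML1-DL cells (ABD Ca8 dye plus quencher, 45-90 min RT loading): baseline, then compound, then 110 s agonist window; EC80 agonist 54-4 at 4uM final added afterwards for a 110 s antagonist window.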
# Starred values were filed as active, the others as inactive; ? = inconclusive; · = no result given; & = joins results of further samples; [ ] = remark or other dose.
SMILES,CtBP-E1A inh,Six1-Eya2 blk,TRPML1 inh,PINK1 modulator,D2 agonist,TRPML1 ag
Cc1ccc(C)c(Cn2c(=O)n(-c3ccc(CC(=O)NCc4ccco4)cc3)c(=O)c3sccc32)c1,-1.1,2.1,3.6,3.9%,-2.3,-0.1
CN(Cc1ccccc1)C(=O)COC(=O)c1ccccc1SCC(=O)N1CCCC1,-1.8,2.7,-0.8,-0.2%,-3.3,-1.3
NC(=O)CC[C@H](NC(=O)c1ccc(F)cc1)C(=O)OCC(=O)Nc1ccc(N2CCOCC2)cc1,0.0,21.6,2.0,0.0%,-2.5,0.5
CCOc1ccc(NC(C)=O)cc1,6.6,-3.4,20.7,1.1%&1.2%,-5.1,-0.7&-0.7
O=c1[nH]c(C2CCN(S(=O)(=O)c3ccc(S(=O)(=O)NC4CC4)cc3)CC2)nc2c1nnn2Cc1cccc(F)c1,-2.6,-21.4,0.4,8.6%,-2.7,1.4
c1ccc(-n2nnnc2-c2cnc(-c3ccncc3)nc2-c2cccs2)cc1,-0.6,-7.7,-1.8,-2.2%,-1.4,0.4
CCC1=C(OC(=O)N(CC)CC)N2C(=O)OC(=NCCc3c[nH]c4ccccc34)[C@]2(C)[C@H]2C1=CC[C@H]1C(=O)N(C)C(=O)[C@H]12,-1.0,-0.3,-1.1,1.5%,-3.0,-0.4
CCOC(=O)c1cnc2c(ccc3ccccc32)c1N,·,7.9,9.7,3.6%,-4.7,-0.7
CCC1CCCCN1C(=O)CSc1nnc(-c2ccc(Cl)s2)o1 (stereo not drawn),2.3,-4.5,14.6,-0.3%,-0.8,0.2
CCOc1ccc(Oc2nc(NCC(C)C)nc(N(C)C)n2)nn1,-2.4,4.9,-3.3,1.7%,4.0,0.1
COc1ccc(-n2ncc3c2CC(C)(C)CC3NC(=O)C2=CC(=O)CC(C)(C)O2)cc1 (stereo not drawn),0.5,2.0,4.0,1.6%,-2.3,0.0
CC(C)(C)c1ccc(C2(C)NC(=O)N(CC(=O)c3ccc[nH]3)C2=O)cc1 (stereo not drawn),-3.3,-2.7,-3.1,0.5%[38.3 µM],1.3,2.0
Cc1cc(Cl)ccc1OCCCC(=O)NCc1ccncc1,8.7,-9.6,9.6,0.1%,-3.1,-0.3
Cc1ccc(C(NC(=O)N2CCOCC2)C(Cl)(Cl)Cl)cc1F (stereo not drawn),0.4,6.2,3.5,1.7%,-3.6,5.1
CCC(CO)Oc1cc(NCc2ccccc2OC)c2ncn(C(C)C)c2c1 (stereo not drawn),-28.6,-5.6,-3.2,1.4%,14.4,-0.4
O=c1cc(-c2ccc(O)c(O)c2)oc2cc(O)c(C3OC(CO)C(O)C(O)C3O)c(O)c12 (stereo not drawn),-2.7,?,·,0.0%,-3.5,·
N#Cc1cc([N+](=O)[O-])ccc1NC(=O)COC(=O)CN1C(=O)C2CCCCC2C1=O (stereo not drawn),2.0,0.0,-9.3,3.7%,1.3,0.3
CCOC(=O)c1ccc(NS(=O)(=O)c2ccc3[nH]c4c(c3c2)CCCCC4)cc1,·,·,-4.1,5.9%,·,1.1
CN(CC(=O)Nc1ccccc1Cl)C(=O)c1cc2c(s1)CCCCC2,5.4,3.6,2.7,-4.5%,-3.5,1.1
COc1ccc(Br)cc1CNC(=O)c1cc(=O)[nH]c2ccc(S(=O)(=O)N3CCCCC3)cc12,·,·,2.5,0.5%,·,-0.3
C=CCn1c(C)cc(C(=O)CSc2n[nH]c(N)n2)c1C,12.7,-3.4,13.9,0.7%,-2.0,-0.5
COc1ccc(F)cc1C1=CC(=O)C[C@H](c2ccc3c(c2)OCO3)C1,-8.6,-10.4,19.9,4.2%,-3.3,2.4
COc1ccc(NC(=O)Cn2nnc(C(N)=O)c2N)c(OC)c1,6.5,4.3,6.1,-0.1%,2.2,0.5
CCOC(=O)c1cc(-c2ccc(F)cc2)n(CCC(=O)NC2CCN(Cc3ccccc3)CC2)c1C,-21.2,-17.3,-5.6,-0.2%,-4.3,0.7
O=C(NCC(c1cccs1)N1CCOCC1)c1ccco1 (stereo not drawn),-0.3,-0.6,20.7,8.3%,-2.6,-0.2

# Next records.
SMILES,CtBP-E1A inh,Six1-Eya2 blk,TRPML1 inh,PINK1 modulator,D2 agonist,TRPML1 ag
Cc1ccc(S(=O)(=O)c2[nH]c(-c3ccccc3)nc2SCC(N)=O)cc1,·,·,-4.3,0.9%,·,0.8
COc1cccc(CCNC(=O)C2CCC(=O)N(C3CC3)C2)c1OC (stereo not drawn),6.3,1.3,-4.9,-1.1%,-11.3,-0.7
Cc1nc2ccc(S(=O)(=O)NC(C(=O)NC3CCCC3)C(C)C)cc2s1 (stereo not drawn),-1.1,19.6,16.1,0.9%,-5.2,-0.1
Cc1ccc(/C=C2/NC(=O)N(Cc3ccccc3F)C2=O)s1,-14.8,1.4,0.7,11.7%,-0.7,16.5
c1ccc(-c2cn3c(n2)-c2ccccc2C3)cc1,-2.9,-16.0,15.8,-1.3%,0.6,-0.2
Cc1noc(C)c1CSCC(=O)N(C)CC(=O)Nc1cccc(F)c1,5.2,0.3,1.9,-0.2%,-2.6,0.3
Cc1ccc(NCN2C(=O)C3C4C=CC(C4)C3C2=O)cc1 (stereo not drawn),18.2,-2.2,20.7,1.0%,2.4,2.2
O=C(NC(=S)Nc1cccc(NC(=O)c2ccc(Cl)cc2Cl)c1)c1cccs1,-5.5,5.0,-7.1,3.2%,-9.4,-0.1
CC1CCN(C(c2ccc(N(C)C)cc2)c2nnnn2Cc2ccc(F)cc2)CC1 (stereo not drawn),0.2,-11.1,-4.5,5.5%,4.6,0.8
CC(C)(C)c1cc(NC(=O)CSc2nnc(N)s2)n(-c2ccccc2)n1,-1.0,9.5,50.3,0.3%,-8.5,-0.1
CCOC(=O)c1coc(CNC(=O)c2c(C)oc3c2CCCC3)c1,-5.3,1.7,15.1,-2.1%,-0.3,-0.6
Cc1ccc(C(C)C)c(OCC(=O)Nc2ccc(S(=O)(=O)Nc3onc(C)c3C)cc2)c1,·,·,31.2,2.7%,·,2.1
COc1ccc(C(=O)COc2ccc(C)cc2NC(C)=O)cc1,0.8,4.4,9.4,3.2%,1.6,0.4
O=C(Nc1ccc(F)c(Cl)c1)c1cc(C2CCCN(C(=O)C3CC3)C2)on1 (stereo not drawn),0.4,0.1,·,0.4%,9.2,-0.3
Cc1sc2nc(CC(N)=O)[nH]c(=O)c2c1-c1ccccc1,0.2,8.2,19.0,1.2%,-3.3,-0.7
O=C(Nc1ccccc1Cc1ccccc1)c1ccccc1NS(=O)(=O)c1ccc(Cl)s1,0.0,6.1,8.6,11.2µM*,-0.9,0.4
CC(=O)N/C(=C/c1ccccc1)C(=O)NC(Cc1ccccc1)C(=O)O (stereo not drawn),12.7,3.9,2.2,1.1%,-2.7,-0.5
CON(C)C(=O)CC1(CN(Cc2ccccc2)C(=O)OC(C)(C)C)CCCCC1,7.1,6.9,-16.0,?,2.9,0.4
Oc1[nH]c2ccccc2c1N=Nc1ccccc1F,8.4,5.6,-1.6,7.4%,-4.0,20.2
CC(C)N(C(=S)NCc1ccccc1)c1ccccc1,0.0,3.7,0.7,0.8%,-3.1,0.1
O=C(CCCc1c[nH]c2ccccc12)N[C@@H](Cc1c[nH]c2ccccc12)C(=O)O,-6.5,-8.9,25.1,-0.2%,1.8,0.9
Cc1cccc(NC(=O)c2ccc(NS(=O)(=O)c3c(C)noc3C)cc2)c1,-0.9,2.2,12.4,-1.6%,-3.6,-0.3
COc1ccccc1C(CC(=O)Nc1ccccc1C)c1ccc(OC(C)C)cc1 (stereo not drawn),·,-0.2,7.8,0.1%,-8.3,2.8
CCO[C@H]1OC(C(=O)NCc2nc3ccccc3[nH]2)=C[C@@H](c2csc3ccccc23)[C@@H]1CCCO,-4.2,-10.5,8.8,-1.5%,4.2,0.0
COc1nc2ccccc2c(=O)n1OCC(C)C,1.9,6.9,12.2,-0.2%[38.3 µM],3.1,0.0

# (continued)
SMILES,CtBP-E1A inh,Six1-Eya2 blk,TRPML1 inh,PINK1 modulator,D2 agonist,TRPML1 ag
CSc1cccc(NC(=O)CC(c2cccs2)N2Cc3ccccc3C2=O)c1 (stereo not drawn),·,·,42.1,2.1%,·,1.7
CC(C)Cc1nc(SCC(=O)Nc2ccc(S(N)(=O)=O)cc2)n[nH]1,2.8,2.5,-6.4,·,-2.1,0.2
CCOC(=O)c1c(C)[nH]c(C(=O)COC(=O)COc2ccccc2C=O)c1C,3.0,-7.6,-17.2,0.1%,-4.8,0.5
COc1cccc(C2c3c(oc4cc(C)cc(C)c4c3=O)C(=O)N2CCc2ccc(OC)c(OC)c2)c1 (stereo not drawn),·,·,-6.1,2.7%,·,2.6
O=C1CCCc2cc(S(=O)(=O)NCC3CCC(C(=O)NCc4ccccc4Cl)CC3)ccc2N1 (stereo not drawn),·,·,12.0,0.5%,·,0.4
CC(C)C(O)(C#CCN1CCCCC1)c1ccccc1 (stereo not drawn),6.3,4.2,11.6,·,-0.5,0.2
O=C(CNC(=O)c1ccccc1Br)N/N=C/c1ccccc1O,?,-65.2*,-6.8,-1.1%,0.9,0.0
COc1ccccc1C1=NOC(Cn2c(NCCOCCO)nc3c2c(=O)n(C)c(=O)n3C)C1 (stereo not drawn),·,3.3,8.3,-0.4%,1.9,1.1
COc1cc(/C=C/C(=O)OCC(=O)Nc2ccccc2Sc2ccc(Cl)cc2)ccc1O,-0.1,-11.9,8.5,?,6.6,1.9
C[C@]12c3[nH]c4cc(-c5ccco5)ccc4c3CCN1C(=O)[C@@H](CC(=O)NCCN1CCOCC1)C[C@@H]2C(=O)N1CCOCC1,-4.4,8.1,3.8,-0.3%,0.8,2.1
Cc1noc(C)c1CS(=O)(=O)c1ccc(Br)cc1,-10.6,-1.2,10.0,1.3%,-2.9,-0.2
CN1CCN(C(=O)C(N)Cc2ccccc2)CC1 (stereo not drawn),7.9,-1.7,-9.9,1.4%,0.1,-0.6
C[C@@H](c1ccccc1)N1C[C@@H](COCc2ccccc2)Oc2cc(N3CC[C@@H](O)C3)ccc2S1(=O)=O,-5.1,-17.1,·,1.1%,·,-0.2
O=C(CN1C(=O)NC2(CCc3ccccc3C2)C1=O)NCc1ccco1 (stereo not drawn),-4.8,1.1,12.7,-0.1%,-1.0,-0.8
COCc1c(C#N)c(NCCc2ccc(F)cc2)nc(C)c1[N+](=O)[O-],-1.5,-6.3,-2.9,1.7%,0.3,26.9
COCCCn1c(=O)/c(=C\c2cccc(OC)c2OC)s/c1=C(/C#N)C(=O)Nc1ccc(C(=O)O)cc1,-2.9,-0.6,·,1.3%,-2.4,·
COCCCNc1ncnc2ccc(C)cc12,-3.0,2.1,-5.8,-0.6%,1.3,-0.8
COc1ccccc1Nc1nc(C)nc2c1oc1ccccc12,8.6,8.0,5.4,5.8%,-1.9,4.2

# Some of these compounds in order of their number in CtBP-E1A inh, lowest first.
Compound	CtBP-E1A inh
COCCCn1c(=O)/c(=C\c2cccc(OC)c2OC)s/c1=C(/C#N)C(=O)Nc1ccc(C(=O)O)cc1	-2.9
Cc1cccc(NC(=O)c2ccc(NS(=O)(=O)c3c(C)noc3C)cc2)c1	-0.9
CC(=O)N/C(=C/c1ccccc1)C(=O)NC(Cc1ccccc1)C(=O)O (stereo not drawn)	12.7

# Source: PubChem BioAssay
